Vaccinia mCherry: inhibitors of vaccinia virus infection (mCherry reporter signal). AID 720579. Vaccinia virus mCherry reporter infection, fluorescence; about a quarter of the inactives have no number. 310,000 tested, 0.63% active. Potency, µM (highest dose often 36.5 µM), for inactives: top-dose activity change, negative = inhibition, most hits filed as inhibitors; active = well fitted inhibition curve with a large enough effect; inconclusive = small, poorly fitted or top-dose-only effect; inactive = no such curve, though single readings can be large or run the other way; tested in A549 cells; further: nearly all actives have a fitted effect of over 35% in size; inactives centre near -10
VACV Venus inh: vaccinia inhibition (Venus reporter); Vaccinia virus Venus reporter expression, fluorescence; Potency, µM (top dose mostly 36.5 µM), without a hit: at the highest dose activity change, negative = inhibition, most hits filed as inhibitors; 330,000 tested, 0.46% active; active means well fitted inhibition curve with a large enough effect; inconclusive means small, poorly fitted or top-dose-only effect; inactive means no such curve, though single readings can be large or run the other way; tested in A549 cells; further: nearly all actives have a fitted effect of over 30% in size; inactives centre near -10
Numbers without * were called inactive; i = inactive; ? = inconclusive; . = not tested or not shown; & = joins results of further samples; [ ] = another dose, or the depositor's remark. On the % scale 0 is the no-effect control and ±100 the full control effect; potency means the concentration at half of the fitted maximal effect.

Values in the order – Vaccinia mCherry, VACV Venus inh
COc1ccc(NC(=O)Cn2nnc(-c3nc(-c4ccncc4)no3)c2N)cc1OC
→ -7%, -4%
NS(=O)(=O)c1ccc(Nc2c([N+](=O)[O-])cncc2[N+](=O)[O-])cc1
→ ?, ?
CC(=O)N1CCc2ccc(N)cc21
→ ?, 0%
CC1(C)CC(=O)C2=C(C1)Nc1ncnn1C2c1cccs1 (stereo unspecified)
→ -29%, -10%
O=C(CCN1C(=O)/C(=C/c2ccc3c(c2)OCO3)SC1=S)NNC(=O)c1cccnc1
→ -8%, -11%
C/C(=C\C(=O)c1ccc(Br)cc1)Nc1cccc(Cl)c1
→ -13%, 2%
Cc1cc(C)nc(N2N=C(c3ccccc3)CC2=O)n1
→ -20%, -22%
CC1(C(=O)NCC2CC2)CCN1C(=O)C1(c2ccccc2)CC1 (stereo unspecified)
→ i, 2%
O=C(CCN1C(=O)c2ccccc2C1=O)OCN1C(=O)c2ccccc2C1=O
→ ., -18%
CCCCn1c(N)c(N(CCOC)C(=O)c2ccc(NC3CC3)c([N+](=O)[O-])c2)c(=O)[nH]c1=O
→ i, -15%
COC(=O)c1ccc(OCC2c3cc(OC)c(OC)cc3CCN2C(=O)c2ccc(F)cc2)cc1 (stereo unspecified)
→ -9%, 2%
COc1ccc(C(=O)Nc2nnc(S(=O)(=O)Cc3ccccc3)s2)cc1
→ i, -15%
C=CCSc1nnc(C)n1-c1ccc(Cl)cc1
→ -11%, -13%
Cc1ccccc1NC(=S)N(Cc1cccs1)C1CCCC1
→ -11%, -7%
CCOc1ccccc1NC(=O)C1CCC(CNc2c(N3CCOCC3)c(=O)c2=O)CC1 (stereo unspecified)
→ -11%, -4%
Cc1noc(NC(=O)c2ccc(F)cc2)c1C#N
→ -14%, -6%
CCC(CCC(C)C1CCC2C3CC=C4CC(OC(C)=O)CC[C@@]4(C)C3CC[C@@]12C)C(C)C (stereo partly specified)
→ i, 0%
CCOc1ccc(S(=O)(=O)N2CCCCC2)cc1NC(=O)C1=COCCO1
→ -6%, -4%
Cc1ccc(CNC(=O)C(=O)NCCC2CCCCN2S(=O)(=O)c2ccccc2)cc1 (stereo unspecified)
→ -15%, -28%
Cn1cc(CN2CCC(n3nccc3NC(=O)C3CCCC3)CC2)cn1
→ i, -12%
CCOc1ccc(N(CC(=O)Nc2nccs2)S(=O)(=O)c2c(C)noc2C)cc1
→ 10%, -17%
O=C(NCCCN1CCOCC1)c1cc(-c2ccc(F)cc2)no1
→ -9%, -25%
Nc1ccn(CC(=O)NCc2ccccc2)c(=O)n1
→ -10%, -12%
CCOc1cc(NC(=O)c2cccs2)c(OCC)cc1NC(=O)CCC(=O)NCC1CCCO1 (stereo unspecified)
→ -13%, -4%
O=C(Nc1ccc(F)cc1F)N1CCN(c2ncccn2)CC1
→ i, -5%
COc1ccc(C(=O)Nc2ccccc2C(=O)N/N=C/c2ccccn2)cc1OC
→ ?, ?
COc1cccc(CN2C(=O)CCC2(C)C(=O)NC2CCCCC2)c1 (stereo unspecified)
→ 3%, -3%
CCn1c(=O)c2sccc2n2c(CCCC(=O)NCCc3ccc(S(N)(=O)=O)cc3)nnc12
→ -15%, -10%
Nc1ccccc1Nc1cc(-c2ccccc2)nn1-c1ccccc1
→ i, -10%
COc1ccc(/C=N/N=C2/NC(=O)C(CC(=O)O)S2)cc1OCc1ccccc1Cl (stereo unspecified)
→ -11%, -3%
O=S(=O)(c1ccccc1)[C@@]1(c2ccccc2)C[C@@H]2ON=C(c3cccc(-c4ccccc4)c3)[C@@H]2C1
→ -6%, -23%
CCc1cc2c(SCC(=O)NCC3CCCO3)ncnc2s1 (stereo unspecified)
→ -2%, -15%
CCC(=O)NC(=S)Nc1cccc(NC(=O)c2ccco2)c1
→ -2%, 6%
Cc1cc(C)c(C)c(OCCOCCN2CCN(C)CC2)c1
→ -8%, -10%
CCc1nc2c(OCc3ccc(F)cc3)cccn2c1N(C)C(=O)c1ccncc1
→ 60%[activator], -8%
O=C(NC1CCCCC1)N1CCc2[nH]c3ccccc3c2C1
→ i, -23%
C[C@]12CCC(=O)C=C1CC[C@@H]1[C@@H]2CC[C@@]2(C)[C@H]1CC[C@]2(C)O
→ i, -12%
Cc1ccccc1CNC(=O)C1CCC(=O)N(C2CC2)C1 (stereo unspecified)
→ -3%, -5%
O=C(Oc1ccc(OC(=O)C2CCC2)cc1)C1CCC1
→ -22%, 0%
O=C1c2cccc3cc([N+](=O)[O-])cc(c23)C(=O)N1/N=C/c1ccc(O)cc1O
→ 125%[activator], 158%[activator]
S=C(c1cn(Cc2ccc(Br)cc2)c2ccccc12)N1CCOCC1
→ -27%, -20%
COc1ccccc1CN(C)C(=O)c1ccc(S(=O)(=O)Nc2c(C)n(C)n(-c3ccccc3)c2=O)cc1
→ -11%, -7%
CC(=O)/C(=N\Nc1ccc(Cl)cc1Cl)Sc1nnc(-c2ccccc2)n1-c1ccccc1
→ -10%, -9%
COc1ccc(-c2cnc(C)o2)cc1S(=O)(=O)Nc1ccc(F)cc1F
→ -13%, -6%
O=C(NC1CCCC1)C(c1ccncc1)N(C(=O)Cc1cccs1)c1cccc(F)c1 (stereo unspecified)
→ i, -4%
N#Cc1sc(NCc2ccccc2)nc1Cl
→ -6%, -8%
CC/C=C\C/C=C\C/C=C\CCCCCCCCCC(=O)O
→ i[3.33 µM], -16%[3.33 µM]
NC(=O)CN1C(=O)NC2(CCOc3ccccc32)C1=O (stereo unspecified)
→ 5%, -7%
CC(C)CCNC(=O)COC(=O)/C=C/c1ccc2ccccc2n1
→ -11%, 4%
O=C(Nc1ccc(Br)cc1)C1CC(O)CN1C(=O)OCc1ccccc1 (stereo unspecified)
→ ?, -6%
COc1ccc(CNC(=S)Nc2cccc(C)c2C)cc1
→ ., ?
COc1ccc(NC(=O)CN2C(=O)COc3ccc(S(=O)(=O)N4CCOCC4)cc32)cc1
→ -8%, -3%
COc1ccccc1C(=O)Nc1ccc(-c2nnn(CC(=O)NCc3ccco3)n2)cc1
→ -14%, -6%
CCOC(=O)C1CCCN(C(=O)c2ccc3ncsc3c2)C1 (stereo unspecified)
→ i, -8%
O/C=c1\ccc2cccc3nc(C(F)(F)F)nc1c23
→ -8%, 10%
Nc1nonc1-n1nnc(C(=O)N/N=C/c2cccc(F)c2)c1-c1ccc2c(c1)OCO2
→ -18%, -6%
O=C(COC(=O)c1cccc(S(=O)(=O)N2CCN(c3ccc(F)cc3)CC2)c1)NCC1CCCO1 (stereo unspecified)
→ -8%, -9%
COC(=O)c1ccc(NS(=O)(=O)c2ccc3c(c2)oc(=O)n3C)cc1
→ -7%, -4%
O=C(CSc1ccc(-c2ccc(-n3cccn3)cc2)nn1)Nc1ccccc1F
→ -15%, -8%
Cc1cc(C2C(C#N)=C(N)OC3=C2C(=O)CC(C)(C)C3)c(C)s1 (stereo unspecified)
→ ., -23%

(next part)
Values in the order – Vaccinia mCherry, VACV Venus inh
COc1ccc(-c2nc(CSCC(=O)NCc3ccc4c(c3)OCO4)c(C)o2)cc1OC
→ 14%, -3%
Cc1cc(Br)ccc1NC(=O)C1CCCN(S(=O)(=O)c2cccc3nonc23)C1 (stereo unspecified)
→ -14%, -8%
O=C(CN1C(=O)NC2(CCCc3ccccc32)C1=O)Nc1cc(F)ccc1F (stereo unspecified)
→ -14%, -5%
C1CNCCOCCNCCN1
→ -1%, -4%
COc1ccc(CNC(=O)C(C#N)c2nc3ccccc3nc2N2CCCC2)cc1 (stereo unspecified)
→ ., -10%
CCC1CCCCN1C(=O)CSc1nc2c(cnn2-c2ccc(C)cc2)c(=O)[nH]1 (stereo unspecified)
→ -2%, 13%
O=C1CCc2cc(S(=O)(=O)NCc3ccccc3)cc3c2N1CC3
→ -9%&-2%, -10%&-4%
COc1cccc(NC(=O)CCSc2ccc3ccccc3n2)c1
→ -12%, -4%
Cc1ccc(NC(=O)Cn2c(=O)n(CCCCC(=O)NCCc3ccccc3)c(=O)c3ccccc32)c(C)c1
→ -11%, -3%
COC(=O)C1=C(C)N(CCc2ccc(OC)c(OC)c2)C(=O)/C1=C\c1ccc(O)cc1
→ i, -8%
NC(=O)c1ccc(OCC(=O)N2CCNC2=O)cc1
→ i, -4%
O=S(=O)(Nc1nc2c(s1)CCCC2)c1ccc(Br)cc1
→ -8%, -4%
Cc1csc(NC(=O)CCS(=O)(=O)c2ccc(Br)cc2)n1
→ ., ?
Cc1ccc(C(=O)N(CCc2ccccc2)Cc2ccccc2)cc1S(=O)(=O)N1CCCCC1
→ i, 0%
CCOc1ccc(CN(C)C(=O)c2cccc(S(=O)(=O)Nc3ccccc3OC)c2)cc1OC
→ -21%, -23%
COc1ccc(N(Cc2ccccc2)S(=O)(=O)c2cc(C(=O)O)ccc2Cl)cc1
→ -2%, 1%
Cc1ccc2cc(C3CC(c4ccco4)=NN3S(C)(=O)=O)c(Cl)nc2c1 (stereo unspecified)
→ 58%[activator], -4%
CCC(=O)N/N=C(\C)CC(=O)Nc1ccc2c(c1)OCCO2
→ i, -6%
COc1cc(NC(=O)C2COc3ccccc3O2)c(OC)cc1Cl (stereo unspecified)
→ ., 1%
Cc1ccc(C(=O)COc2nc(C)nc3ccccc23)cc1
→ -3%, -3%
CC(=O)Nc1ccc(S(=O)(=O)NCC(=O)OCC(=O)NCc2ccco2)cc1
→ i, -10%
COc1ccc(-c2nn3c(-c4ccccc4)nnc3c3ccccc23)cc1
→ i, -7%
COc1cccc(CNC(=O)Cn2c(=O)cc(C(F)(F)F)c3c(C)nn(C)c32)c1OC
→ -7%, 5%
CN1CCN(C(=O)c2ccc(NC(=O)c3ccc(Br)o3)cc2)CC1
→ 29%, 5%
CC(C)(C)NC(=O)C12CC3CC(CC(Cl)(C3)C1)C2
→ i, -3%
CC(=O)NC1C(=O)N(CCN2CCOCC2)c2ccc(C)cc21 (stereo unspecified)
→ i, 7%
NC(N)=NCCCc1cn(CC(=O)N2CCNCC2)nn1
→ -8%, -5%
CCOc1cnn(-c2ccccc2)c(=O)c1Cl
→ i, -9%
C(=N\Nc1ccccc1)/c1ccc(N2CCOCC2)cc1
→ -5%, -7%
Cc1cc(N2CCOCC2)nc(C(C)C)n1
→ -1%, -12%
Cc1cc(Nc2ccc(N3CCC(C)CC3)cc2)n2ncnc2n1
→ -17%, -20%
Cc1ccc(S(=O)(=O)N2CCN(c3nc(-c4cccs4)nc4ccccc34)CC2)cc1
→ -6%&-13%, -13%&-3%&-3%
COC(=O)c1cc(NC(=O)c2c(F)c(F)c(F)c(F)c2F)cc(C(=O)OC)c1
→ i, -17%
O=C(Cn1cc(SCc2ccccc2)c2ccccc21)N1CCCCC1
→ -7%, -11%
COc1ccccc1NS(=O)(=O)c1cccc(C(=O)NNC(=O)c2ccc(O)c(Cl)c2)c1
→ -2%, -11%
Cc1c(C(=O)OC2CCCCCC2)[nH]c2c1C(=O)CC(c1ccc(Cl)cc1)C2 (stereo unspecified)
→ -9%, -10%
CN(C)/C=N/C(=S)Nc1ccccc1
→ -5%, 4%
Cc1cc2nc(C)n3c4ccccc4nc3n2n1
→ ., 1%
COc1cccc(CNC(=O)C2CCN(Cc3cc4ccccc4n3Cc3ccc(C)cc3)CC2)c1
→ -11%, 1%
OC(Cn1ccnc1)c1ccc(Cl)cc1Cl (stereo unspecified)
→ -14%[1.46 µM], -16%
CC1CCCN(C(=O)c2ccc(S(=O)(=O)Nc3ccccc3Cl)cc2)C1 (stereo unspecified)
→ i, -20%
CC(C(=O)O)(C1CCCCC1)C1(O)CCCCC1 (stereo unspecified)
→ i, 7%
Nc1c(C(=O)Nc2ccc(S(=O)(=O)N3CCCC3)cc2)sc2nc3ccc(OC(F)(F)F)cc3cc12
→ -18%, -11%
O=C(O)C1CCCCC1C(=O)NCc1cn2ccccc2n1 (stereo unspecified)
→ 2%, 1%
CSCC[C@H](NC(=O)COc1ccc(Cl)cc1)c1nc2ccccc2[nH]1
→ -4%, -2%
CCCCCCN1C[C@H](O)[C@@H](n2cc(COC(=O)c3ccccc3)nn2)C[C@@H]1c1ccc(C)cc1
→ -15%, -17%
O=C(N=Nc1c(O)[nH]c2ccccc12)c1ccc(CN2CCOCC2)cc1
→ -8%, -8%
CN(C(=O)NCc1noc2ccccc12)c1cccc(Cl)c1
→ -5%, -11%
C=CCn1cc(C(=O)N2CCN(C)CC2)c(=O)c2cc(S(=O)(=O)N(CC)CC)ccc21
→ -6%, -4%
Cc1cc(C)c2c(CC(=O)N(Cc3ccc(N(C)C)cc3)Cc3ccco3)coc2c1
→ -9%, -9%
Cc1cccc(NC(=O)CCc2nc3sc4c(c3c(=O)[nH]2)CCCC4)c1
→ -25%, -17%

Five records picked at random from those above, as already listed:
Values in the order – Vaccinia mCherry, VACV Venus inh
Cc1ccc(S(=O)(=O)N2CCN(c3nc(-c4cccs4)nc4ccccc34)CC2)cc1
→ -6%&-13%, -13%&-3%&-3%
COc1ccccc1NS(=O)(=O)c1cccc(C(=O)NNC(=O)c2ccc(O)c(Cl)c2)c1
→ -2%, -11%
Cc1cc2nc(C)n3c4ccccc4nc3n2n1
→ ., 1%
OC(Cn1ccnc1)c1ccc(Cl)cc1Cl (stereo unspecified)
→ -14%[1.46 µM], -16%
CSCC[C@H](NC(=O)COc1ccc(Cl)cc1)c1nc2ccccc2[nH]1
→ -4%, -2%

Screening data: PubChem, National Center for Advancing Translational Sciences (NCATS)

No enrichment for hits; any-hit rate near 0.87%.
